ALR inh – human ALR oxidase inhibition via reduced H2O2; P55789; 3.8% of 290,000 active; purified ALR, DTT oxidation, H2O2 HRP-luminol luminescence; inhibition, % (test concentration not listed);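 active = mean and each replicate at 75% or more; inconclusive = only one of the two met; inactive = neither met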;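 also: stock transfer was 7.5 nL into about 7.5 µL; 0% = neutral wells and 100% = wells with inactivated enzyme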
Target sequence (P55789 whole entry, looked up): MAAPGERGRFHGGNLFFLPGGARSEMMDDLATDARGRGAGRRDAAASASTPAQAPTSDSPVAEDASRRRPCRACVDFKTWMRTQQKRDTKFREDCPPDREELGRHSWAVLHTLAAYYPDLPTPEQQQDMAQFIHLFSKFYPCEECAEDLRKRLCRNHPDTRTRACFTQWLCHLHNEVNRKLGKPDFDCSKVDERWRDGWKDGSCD
E coli growth – E. coli growth inhibition | Escherichia coli growth, OD600, 23 h; active compounds read low | OD600 absorbance (test concentration not listed) | 0.21% of 330,000 active;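 active = OD600 absorbance below the run mean of sample wells minus 3.6 SD, in any replicate, cut at about 0.56 in these data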;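 also: stock transfer was 300 nL into about 60 µL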
HNF4A DNA FP – change in binding of human HNF4 alpha to DNA; HNF4a-FITC DNA binding, fluorescence polarization, 1 h; activity change, % at 10 µM; 0.3% of 360,000 active; AID 1224865; in the data active = activity change above about 30%, passing the limit was not always enough;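 also: controls were the assay level and a saturating level of protein; the project sought stronger binding though the title names inhibitors; some compounds called inactive have numbers as strong as hits; positive values seem to mean higher polarization but the record does not say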
Beta2AR agonist – human beta-2 adrenergic receptor agonism by FAP; Am2.2-beta2AR cells, FAP receptor internalization, flow cytometry; reference of the scale not given here; P07550; response, % (no concentration beside the values); AID 504454; 0.43% of 340,000 active;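 active = response above a set limit, near 3 SD of response in nonfluorescent compounds, cut at about 42% in these data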;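 also: stock transfer was 100 nL into about 11 µL; a reference agonist was the positive control; negative values mostly stem from fluorescent compounds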
Target sequence (P07550 whole entry, looked up): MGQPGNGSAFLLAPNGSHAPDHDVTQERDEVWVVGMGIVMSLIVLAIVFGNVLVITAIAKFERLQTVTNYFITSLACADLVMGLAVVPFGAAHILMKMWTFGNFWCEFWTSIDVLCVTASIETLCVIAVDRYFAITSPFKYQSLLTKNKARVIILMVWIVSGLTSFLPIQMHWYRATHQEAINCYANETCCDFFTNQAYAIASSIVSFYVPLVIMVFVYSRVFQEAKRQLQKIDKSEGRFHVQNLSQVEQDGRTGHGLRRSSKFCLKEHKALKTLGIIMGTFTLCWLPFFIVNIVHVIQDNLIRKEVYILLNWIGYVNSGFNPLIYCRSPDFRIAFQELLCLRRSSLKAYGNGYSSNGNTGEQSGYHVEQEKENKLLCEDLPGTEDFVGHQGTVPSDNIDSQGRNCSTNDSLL
FGF22 binding – shifts melting point of recombinant human FGF22; recombinant FGF22 thermal shift, SYPRO orange fluorescence; percent of sucrose octasulfate shift, DMSO zero; Q9HCT0; 1.5% of 340,000 active; AID 651658; calls only at 9.99 µM;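 active = melting point raised past a set limit in the mean and every replicate; inconclusive = no clear call; three in four hits are not shown here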
UCH37 DUB inh – blocks the human deubiquitinase UCH37. Q9Y5K5. purified proteasome/UCH37, Ub-AMC cleavage fluorescence. inhibition, % (concentration not given with the values). 0.33% of 330,000 active;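 active = mean of two replicates above 20%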;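 also: 0% = compound-free wells with enzyme and 100% = wells lacking proteasome; stock transfer was 100 nL into about 20 µL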
Target sequence (Q9Y5K5 whole entry, looked up): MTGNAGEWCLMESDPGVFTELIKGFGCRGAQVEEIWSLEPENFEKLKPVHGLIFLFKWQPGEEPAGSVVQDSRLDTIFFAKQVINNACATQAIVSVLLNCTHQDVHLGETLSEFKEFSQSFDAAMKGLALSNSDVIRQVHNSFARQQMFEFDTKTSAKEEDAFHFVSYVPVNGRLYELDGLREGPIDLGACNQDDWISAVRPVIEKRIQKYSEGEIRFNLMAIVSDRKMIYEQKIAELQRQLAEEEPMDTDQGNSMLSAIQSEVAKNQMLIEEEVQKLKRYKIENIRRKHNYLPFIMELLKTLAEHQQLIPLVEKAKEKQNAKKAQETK
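assay system = human UCH37 enzyme supplied as purified proteasome complex | amount = proteasome at 0.15 nM in the dispensed enzyme solution | schedule = 30 min compound-proteasome preincubation then 25 min substrate reaction, room temperature | measured by = fluorescence, ex 355 nm, em 460 nm | benchmarks = no-proteasome wells (full inhibition) and compound-free wells (no inhibition)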
LANA-H2B inh – blocks KSHV LANA binding to histone H2A/H2B; Q9QR71; cell-free LANA-H2A/H2B peptide, fluorescence polarization; inhibition, % (concentration not given with the values); 0.6% of 320,000 active; AID 2629; in the data active = inhibition mostly above about 10%, no sharp cut-off; inactive = mostly below about 6.7%;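 also: stock transfer was 7.5 nL into about 10 µL; 0% = median of vehicle wells and 100% = median of positive control wells; one replicate is shown; the record names a cut of 25% in any replicate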
* hit, by the source's call; i = inactive; ? = inconclusive; · = no result given. Some of the compounds tested. The share of hits here may be higher or lower than overall.

SMILES	ALR inh	E coli growth	HNF4A DNA FP	Beta2AR agonist	FGF22 binding	UCH37 DUB inh	LANA-H2B inh
CC(=O)NCCC(=O)N(Cc1ccccc1)c1nc2c(C)cccc2s1	-17	0.69	-4.7	1	i	5.3	8.1
CCC(Sc1nc2ccccc2o1)C(=O)O (centres undefined)	-10	0.6	4.8	-3	i	0.0	1.1
O=C(Cc1c[nH]c2ccccc12)Nc1cccc(S(=O)(=O)N2CCCCC2)c1	1	0.67	·	·	·	2.3	-2.7
Cc1cc(NC(=O)c2ccc(Cl)cc2)cc(C)c1OCC(=O)N1CCOCC1	0	0.69	-2.9	2	i	2.1	1.0
CCOC(=O)c1[nH]c2ccccc2c1NC(=O)c1ccc(S(=O)(=O)N2CCCC2)cc1	-10	0.74	2.1	4	i	-7.1	2.3
O=C(COc1cccnc1[N+](=O)[O-])Nc1ccc(Cl)cc1F	-1	0.64	0.0	-4	i	0.6	2.5
COc1ccccc1-n1cnc2cc(C(=O)NCCCN3CCOCC3)ccc21	·	0.79	1.3	2	·	3.4	·
Cc1cccc(C)c1NC(=O)N1CCC(c2nc3ccccc3o2)CC1	-8	0.7	-0.7	1	·	0.8	-0.4
COc1cc(OC)c(C(=O)C=Cc2ccc(OC)c(OC)c2)c(OC)c1	·	0.66	-3.1	1	i	11	·
CCOC(=O)C1(CC2CC2)CCN(Cc2ccc(O)c(Cl)c2)CC1	9	0.61	·	·	·	-0.1	1.1
COC(=O)CCC(=O)OC1(C)C(=O)C=C2C=C(C3CC3)N(CC3CC3)C=C2C1=O (centres undefined)	·	0.69	-4.1	0	i	-0.3	3.3
Cc1ccccc1-c1nc(CS(=O)(=O)CC(=O)NCc2ccc(F)cc2)c(C)o1	-17	0.68	-0.8	2	i	0.3	-1.7
Cc1ccc(OCc2cc(C(=O)N(C)Cc3cnc4ccccn34)no2)cc1C	0	0.65	-0.1	-4	i	1.2	1.0
CCN(CC)S(=O)(=O)c1cccc(-c2nn(-c3ccccc3)cc2/C=C(\C#N)C(=O)NCc2ccco2)c1	1	0.73	2.7	-2	·	-38	-2.9
Cc1ccc(CS(=O)(=O)CCC(=O)NCCN2CCCCC2C)cc1 (centres undefined)	-4	0.8	-0.7	-2	·	1.8	-0.6
N#CCc1cc2ccc3cccc4ccc(c1)c2c34	-1	0.66	-5.0	3	i	-379	3.5
CCOC(=O)N1CCC(N2CCN(S(=O)(=O)c3ccc(Cl)cc3)CC2)CC1	-10	0.67	3.0	-5	·	1.3	5.1
CC(C)(C)CN1C(N)=NC[C@H]1Cc1ccc(O)cc1	·	·	2.1	-18	i	1.1	-2.4
O=C(O)c1cccc(NS(=O)(=O)/C=C/c2ccccc2)c1	0	0.67	5.5	-5	·	2.5	2.1
C/C(=N/NC(=O)CNC(=O)c1cccnc1)c1ccccc1	-3	·	0.5	12	i	·	1.6
Cc1ccc(C(NC(=O)c2cccc(S(=O)(=O)N3CCN(C)CC3)c2)c2ccccc2)cc1 (centres undefined)	-2	0.71	-1.5	3	i	4.9	4.9
Cc1cc(=O)n2nc(N3CCCC(C(=O)N4CCN(c5ccccc5)CC4)C3)sc2n1 (centres undefined)	36	0.75	2.6	-7	·	-3.4	-0.6
Cc1ccc(N(C(C)C(=O)Nc2ccc(S(=O)(=O)N3CCOCC3)cc2)S(C)(=O)=O)cc1 (centres undefined)	-6	0.71	3.4	12	·	2.1	1.2
CCN1C(=O)CC2(C[N+]3(C)CCC2CC3)C1=O (centres undefined)	-3	0.67	-0.4	-4	i	3.9	0.0
C=C(C)Cn1c(N(CCO)Cc2ccccc2)nc2c1c(=O)[nH]c(=O)n2C	-4	0.7	-0.7	4	i	1.8	3.1
CC1CCc2c(c3ccccc3[nH]c2=O)O1 (centres undefined)	4	0.68	-0.7	-3	·	-0.6	-3.1
O=C(CNC(=O)c1ccco1)OCc1cccc(Cl)c1	-3	0.71	4.0	1	·	2.6	0.3
Cc1ccc2c(C(=O)CN3CCN(c4ccccc4)CC3)c(C)[nH]c2c1	8	0.74	-1.1	0	·	1.9	-7.8
O=C(c1c(Cl)nc2sccn12)N(C(=O)c1c(Cl)nc2sccn12)c1ccc(Cl)cn1	-5	0.68	2.9	-2	·	-10	0.9
Cc1ccc(NC(=O)CN(C)C(=O)COc2ccccc2-c2ccccc2)cc1	-9	0.65	-4.4	2	i	1.9	-1.5
O=C(Cn1c(=O)oc2ccccc21)NCCc1ccccc1Cl	0	0.68	-2.6	-5	i	4.3	1.9
COc1ccc(C(CNC(=O)c2ccc(S(=O)(=O)N(C)C)cc2)N2CCCCC2)cc1 (centres undefined)	0	0.71	2.1	-2	i	3.0	-0.6
O=c1[nH]c2ccccc2cc1CN(Cc1cccnc1)S(=O)(=O)c1ccc(Cl)cc1	3	0.64	0.3	-9	i	-4.2	20
Cc1ccc(C(=O)COC(=O)CCCC(=O)NC2CCCCC2)cc1[N+](=O)[O-]	-4	0.68	-1.2	-8	·	3.8	2.2
O=C(/C=C/c1ccccc1)NC(NC(=S)Nc1ccc(C(=O)O)cc1)C(Cl)(Cl)Cl (centres undefined)	14	·	2.1	5	·	2.7	-3.0
Cc1ccc(N2CC(C(=O)N3CCc4ccccc4C3)CC2=O)cc1 (centres undefined)	7	0.67	-5.7	-2	·	3.4	8.3
CCC(C)NC(=O)Nc1ccccc1F (centres undefined)	-3	0.73	1.0	10	·	6.2	-8.5
S=C(NCCc1cccc(Cl)c1)NC1CCCCC1	12	0.69	-2.8	-4	i	2.8	-1.7
CC(=O)Nc1ccc(S(=O)(=O)Oc2cccc(/C=N/N=C3/NC(=O)C(CC(=O)O)S3)c2)cc1 (centres undefined)	-2	·	-1.4	-2	·	·	1.2
CN(CC(=O)Nc1c(Cl)cccc1Cl)C(=O)c1sccc1-c1ccccc1	-2	0.68	-4.3	7	i	1.3	0.5
O=C(/C=C/c1ccccc1)Nc1ccc(NC(=O)c2cccs2)cc1	-4	0.65	-0.4	-12	i	3.3	-5.9
CCC(=O)N1CCc2cc(Br)cc(S(=O)(=O)N3CCCC(C(=O)O)C3)c21 (centres undefined)	-10	0.74	-0.9	1	i	5.0	-3.3
N#C/C(=C\c1ccc[nH]1)C(=O)Nc1ccccc1Cl	-2	0.75	-6.7	1	i	2.8	3.7
O=[N+]([O-])c1ccc(NN=C(c2ccccc2)c2ccccc2)nc1	·	0.69	-2.8	-8	i	-6.3	·
O=C(CSc1nnc(CNC(=O)c2cccs2)o1)c1ccc(Cl)cc1	39	0.7	-1.0	1	·	5.6	1.2
CC1(C)CN(C(=S)Nc2ccc(F)cc2F)C1=O	-2	0.66	-0.1	15	i	5.1	0.3
COc1ccccc1NC(=O)Cc1ccsc1	-11	0.73	-2.6	7	i	5.3	-3.7
CCO[C@@H]1OC(C(=O)N2CCN(C)CC2)=C[C@H](c2ccc(C(F)(F)F)cc2)[C@H]1CCCO	-10	·	-2.5	1	i	3.2	-2.6
COC(=O)C(C)NC(=O)COc1ccc2ccccc2c1 (centres undefined)	-12	0.69	-0.9	13	·	1.1	2.1
COc1ccc(C2(C)NC(=O)N(CC(=O)N3CCc4ccccc43)C2=O)cc1OC (centres undefined)	12	0.72	2.3	-11	i	-1.7	4.5
CCC(C)N(C(=O)COC(=O)CCc1c[nH]c2ccccc12)C1CCS(=O)(=O)C1 (centres undefined)	20	0.71	-1.4	8	·	-0.1	-1.7
Cc1ccc(CNC(=O)c2cc(-c3ccccc3)nn2CC2CC(c3cccc([N+](=O)[O-])c3)=NO2)cc1 (centres undefined)	-9	0.74	-1.6	-1	i	4.1	-5.3
Cc1cc(C(C)(C)C)cc(S(=O)(=O)Nc2ccc(O)c(C(=O)O)c2)c1C	?	0.72	-1.7	0	·	0.6	2.5
Cc1ccccc1NC(=O)c1ccc(Cl)c(NC(=O)c2cccnc2)c1	2	0.7	·	·	i	1.3	-1.2
O=S(=O)(c1ccc(Cl)nc1)N1CCCC1	-5	0.69	4.9	3	i	3.1	3.0
CC1(C)CC(=O)C2=C(C1)NC(=O)NC2c1ccccc1Cl (centres undefined)	7	0.68	4.2	-2	·	1.7	0.8
CC(C)(C)C(=O)N1CCN(c2ccc(NC(=O)c3ccc4c(c3)OCCO4)cc2)CC1	14	0.61	2.1	11	i	0.5	1.3
Cc1c(C(=O)O)oc2ccc(S(=O)(=O)N3CC(C)CC(C)C3)cc12 (centres undefined)	5	0.74	6.4	-1	·	-2.8	1.5
CCOc1ccc(NC(=O)c2cccnc2SC)cc1	-8	0.67	4.0	1	i	3.1	1.2
O=C(O)CSCC(=O)NC1CCCc2ccccc21 (centres undefined)	-5	0.72	-3.1	3	i	1.1	-1.2

In another format: entries from further up
Structure,ALR inh,E coli growth,HNF4A DNA FP,Beta2AR agonist,FGF22 binding,UCH37 DUB inh,LANA-H2B inh
CC(C)(C)C(=O)N1CCN(c2ccc(NC(=O)c3ccc4c(c3)OCCO4)cc2)CC1,14,0.61,2.1,11,i,0.5,1.3
Cc1c(C(=O)O)oc2ccc(S(=O)(=O)N3CC(C)CC(C)C3)cc12 (centres undefined),5,0.74,6.4,-1,·,-2.8,1.5
CCOc1ccc(NC(=O)c2cccnc2SC)cc1,-8,0.67,4.0,1,i,3.1,1.2
O=C(O)CSCC(=O)NC1CCCc2ccccc21 (centres undefined),-5,0.72,-3.1,3,i,1.1,-1.2

(next part)
SMILES	ALR inh	E coli growth	HNF4A DNA FP	Beta2AR agonist	FGF22 binding	UCH37 DUB inh	LANA-H2B inh
CCN(CC(=O)NCc1ccc(Cl)cc1)C(=O)c1ccc2cc(OC)ccc2c1	-2	0.67	-0.7	-15	i	0.9	1.1
N#Cc1ccc(NC(=O)CN2C(=O)NC3(CCCC3)C2=O)cc1	·	0.67	2.5	-1	i	-0.6	2.9
CC1=NN(c2cccc(F)c2)C(=O)/C1=C/c1ccc(N(C)C)cc1	-4	0.7	2.0	4	i	1.8	-4.2
O=C(COC(=O)CNC(=O)c1ccc(Br)cc1)Nc1nnc(-c2ccccc2)o1	3	0.7	2.5	3	i	-1.5	-2.0
CCC(C)[C@H](NC(=O)N1CCCCCC1)C(=O)OC (some centres undefined)	-2	0.64	1.7	-6	i	1.5	3.4
CC1CCN(S(=O)(=O)N2CCCC(C(=O)NCc3ccc(F)cc3)C2)CC1 (centres undefined)	-10	·	1.4	-7	i	·	-3.6
CCOC(=O)NCc1ccc(S(=O)(=O)Nc2ccc(C)cc2)cc1	-1	0.74	2.7	7	·	5.1	-8.3
COc1ccccc1CN(C)C(=O)c1ccc(S(=O)(=O)Nc2c(C)n(C)n(-c3ccccc3)c2=O)cc1	-5	0.66	-0.4	1	i	2.0	2.8
C/C(=N\c1nc2ccccc2n1C)c1cc(Cl)ccc1O	-1	·	-1.5	3	·	·	-6.4
CCN(CC)S(=O)(=O)c1ccc(C(=O)NCC(=O)NCCCc2ccccc2)cc1	·	0.7	-1.0	12	i	-1.1	·
COc1cc(C(=O)OCC(=O)N2CC(C)OC(C)C2)cc(OC)c1OC (centres undefined)	-6	0.69	-2.1	1	i	2.8	-2.0
CC(C)Oc1ccc(C(CC(=O)O)c2ccc(F)cc2)cc1 (centres undefined)	1	0.7	-1.9	2	i	3.1	-3.5
CCOc1ccc(NC(=O)CSc2ccc(-c3ccco3)nn2)cc1	24	0.68	0.0	2	i	2.1	0.4
CCOc1ccccc1NC(=O)CSc1ccc2nnc(-c3cccnc3)n2n1	4	0.66	0.5	-2	·	0.0	-2.8
COc1ccc(NC(=O)CSc2nnc(C)c(=O)n2N)cc1	-27	0.66	2.6	-1	i	1.1	2.1
CC(=O)c1ccc(OCCCC(=O)NC2CCCc3ccccc32)cc1 (centres undefined)	-2	0.69	-3.0	-3	i	3.1	-1.5
CCN(CC)S(=O)(=O)c1cc(OC)c(Cl)cc1OC	-1	0.64	0.6	-3	i	2.7	-9.4
Cc1ccc(S(=O)(=O)Nc2cc3c4c(c2)C(C)C(=O)N4CCC3)cc1 (centres undefined)	-8	0.61	-2.0	8	i	3.4	-3.0

Screening data (PubChem BioAssay)
